Six1-Eya2 inh – qHTS Assay for Inhibitors of the Six1/Eya2 Interaction; AlphaScreen GST-Six1/His-Eya2 binding, biochemical; stronger effect = lower value; control for the full effect not named in the record; Homeobox protein SIX1 (Homo sapiens) + Protein phosphatase EYA2 (Homo sapiens), …; 0.56% of 360,000 active; activity change, % (no concentration beside the values); in the data active = activity change below about -65%; inconclusive = about -30% to -65%; inactive = above about -30%; also: % is scaled to controls: 0 for no effect and ±100 for the full control effect; compound concentration not given in the record
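AlphaScreen with GST-Six1 and His-Eya2 (5X mix: 250 nM and 500 nM), glutathione donor and nickel acceptor beads; buffer 50 mM Tris pH 8.0, 300 mM NaCl, 1 mM TCEP; 1 h at 37 C in the dark.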
CtBP-E1A inh – qHTS Assay for Inhibitors of the CtBP/E1A Interaction | CtBP / adenovirus E1A interaction (AlphaScreen) | AlphaScreen GST-E1A/His-CtBP binding, 1536-well; stronger effect = lower value; control for the full effect not named in the record | activity change, % (test concentration not listed) | 0.49% of 340,000 active; in the data active means activity change below about -65%; inconclusive means about -30% to -65%; inactive means above about -30%; also: % is scaled to controls: 0 for no effect and ±100 for the full control effect; compound concentration not given in the record
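GST-E1A and His-tagged CtBP (125 nM each as 5X stock) were preincubated with pin-transferred compound for 2 h at 37 °C in the dark, then glutathione donor and nickel acceptor beads were added for 1 h before AlphaScreen reading.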
D2 PAM – Beta-Arrestin HTS for Positive Allosteric Modulators of the Human D2 Dopamine Receptor: Potentiators | D(2) dopamine receptor (Homo sapiens), P14416 | DiscoveRx D2 beta-arrestin cells, luminescence, 90 min; 100% = 57 uM dopamine signal | 0.23% of 360,000 active | potentiation, % (test concentration not listed); active = potentiation of 50% or more; inconclusive = 30% to 50%; inactive = 30% or less;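 also: compound concentration not given in the record; tested on top of an EC20 dose of dopamine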
Target sequence (P14416 whole entry, looked up): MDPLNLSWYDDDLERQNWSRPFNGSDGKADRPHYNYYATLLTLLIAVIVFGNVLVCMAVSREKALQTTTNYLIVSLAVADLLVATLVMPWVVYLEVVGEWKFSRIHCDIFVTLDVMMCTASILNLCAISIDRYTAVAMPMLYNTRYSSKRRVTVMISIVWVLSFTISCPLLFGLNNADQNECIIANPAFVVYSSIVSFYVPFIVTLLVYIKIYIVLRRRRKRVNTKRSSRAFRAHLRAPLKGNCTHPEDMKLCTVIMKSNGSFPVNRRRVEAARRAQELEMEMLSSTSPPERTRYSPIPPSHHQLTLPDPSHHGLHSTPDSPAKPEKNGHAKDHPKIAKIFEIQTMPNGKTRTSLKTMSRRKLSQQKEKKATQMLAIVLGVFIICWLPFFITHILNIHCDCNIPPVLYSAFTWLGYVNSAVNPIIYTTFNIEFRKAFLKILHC
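PathHunter beta-arrestin assay in DiscoveRx D2 cells. Compounds were added with an EC20 of dopamine (50 nM final) for 90 min at 37 deg C. Luminescence was read 1 h after detection reagent, with 57 uM dopamine as the EC100 control.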
D2 ag – Beta-Arrestin HTS for Positive Allosteric Modulators of the Human D2 Dopamine Receptor: Agonists. D(2) dopamine receptor (Homo sapiens), P14416. DiscoveRx PathHunter D2 beta-arrestin, luminescence, 90 min; 100% = 57 uM dopamine signal. activation, % (test concentration not listed). 0.084% of 360,000 active. AID 624465, 2012; in the data active = activation above about 40%; inconclusive = about 15% to 40%; inactive = below about 15%; also: compound concentration not given in the record; the text of the record calls up to 30% inactive
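DiscoveRx PathHunter D2 beta-arrestin cells (2,100/well) attached overnight, then compound-stimulated 90 min at 37 C in HBSS/10 mM HEPES/0.1% Tween-20 buffer; beta-galactosidase complementation read by luminescence after 1 h at ambient temperature. Dopamine 57 uM final (EC100) as control.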
gsp antagonist – qHTS for Antagonists of gsp, the Etiologic Mutation Responsible for Fibrous Dysplasia/McCune-Albright Syndrome: qHTS; Potency, µM (series often up to 76.9 µM), for the others: at the highest dose activity change, negative = inhibition, hits mostly inhibitors; AID 624288, 2012; 0.4% of 340,000 active; gsp-mutant cells, cAMP HTRF, 30 min; control for the full effect not named in the record; active = falling curve of any shape with a large fitted effect; inconclusive = falling curve, mostly with a smaller effect; inactive = flat or rising curve; cell line not stated here;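 also: intracellular cAMP measured with PDE inhibitor Ro 20-1724 present during compound exposure; potency is read from the fitted curve at half-maximal effect; % is scaled to controls: 0 for no effect and ±100 for the full control effect; nearly all actives have a fitted effect of over 65% in size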
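HTRF cAMP read-out (cAMP-d2 plus anti-cAMP antibody-K in lysis buffer, 30 min RT). Before lysis, cells are exposed to compounds with […] for 30 min at 37C in DPBS containing Ca/Mg, BSA and Tween 20.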
gsp agonist – qHTS for Agonist of gsp, the Etiologic Mutation Responsible for Fibrous Dysplasia/McCune-Albright Syndrome: qHTS; Potency, µM (doses to about 76.9 µM), for the others: top-dose activation (cAMP increase), usual class: activators; 0.13% of 340,000 active; gsp mutant cells, cAMP HTRF, 30 min; control for the full effect not named in the record; active = well fitted activation curve with a large enough effect; inconclusive = small, poorly fitted or top-dose-only effect, or another doubt; inactive = no such curve, though single readings can be large or run the other way; cell line not stated here;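 also: phosphodiesterase inhibitor Ro 20-1724 added with compounds to block cAMP breakdown; potency is read from the fitted curve at half-maximal effect; nearly all actives have a fitted effect of over 60% in size; about a fifth of the inactives were tested at one dose only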
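Cells stably selected in G418 were plated at 2000/well, grown 16-24 hr, then given compounds in DMSO with the PDE inhibitor […] (300 uM solution added) for 30 min at 37C; cAMP was read by HTRF.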
Active calls of the source: *; ? = inconclusive; . = not tested or not shown; [ ] = dose if it differs, or a comment. Random draw from the library; overall some 1.4% were active at least once.

Values run as follows: Six1-Eya2 inh, CtBP-E1A inh, D2 PAM, D2 ag, gsp antagonist, gsp agonist
- CCOc1ccccc1NC(=O)c1ccc(S(=O)(=O)N2CCCCC2)cc1
→ 11.3, 5.7, 3.0, -2.8, -14.0%, 2.4%[15.4 µM]
- CCOC(=O)[C@@H]1[C@H]2COc3ccccc3[C@@H]2N2C(=O)N(c3ccc(C(F)(F)F)cc3)C(=O)[C@]12C
→ -2.9, 1.8, -2.6, -1.8, 7.6%, -8.0%
- COc1ccc(C(=O)Oc2ccc(C(C)=O)cc2)c(OC)c1
→ -5.3, 4.3, -5.5, -0.9, 2.8%, 11.6%
- COc1cccc(C(=O)NNS(=O)(=O)c2ccccc2)c1
→ -0.1, -0.5, -5.1, -2.1, ., 5.7%
- C[C@@H](C(=O)NCc1ccccn1)[C@@H]1C[C@@]1(C)[C@@H](NC(=O)OCc1ccccc1)c1ccccc1
→ -11.8, -1.5, -4.8, -0.4, -1.6%, -51.9%[inhibitor]
- NC(=O)c1cc(NC(=O)CCc2nc3ccccc3s2)cc(C(N)=O)c1
→ -29.5, 0.0, -6.0, -2.4, -4.0%, -13.0%[15.4 µM]
- O=C(COC(=O)c1ccc2c(c1)C(=O)N(CCc1ccccc1)C2=O)Nc1ccc(OC(F)F)cc1
→ 0.6, 4.3, -23.8, -1.0, 1.2%, 6.0%
- Cc1cc(NCc2ccco2)nc2cc(O)ccc12
→ -6.0, -2.8, -14.4, -5.9, 4.0%, 23.0%
- Cc1ccc(CNC(=O)Cn2cccc2C(=O)c2ccccc2C)cc1
→ -1.0, 2.0, -4.4, -3.7, 7.2%, -36.9%[inhibitor]
- N#CCSc1nnc(SCC#N)s1
→ -2.5, 4.0, -1.9, -0.1, -4.7%, 11.0%[15.4 µM]

Overlap with the part before: 2 compounds, followed by the next part.
Values run as follows: Six1-Eya2 inh, CtBP-E1A inh, D2 PAM, D2 ag, gsp antagonist, gsp agonist
- Cc1ccc(CNC(=O)Cn2cccc2C(=O)c2ccccc2C)cc1
→ -1.0, 2.0, -4.4, -3.7, 7.2%, -36.9%[inhibitor]
- N#CCSc1nnc(SCC#N)s1
→ -2.5, 4.0, -1.9, -0.1, -4.7%, 11.0%[15.4 µM]
- COc1ccc(C(=O)NCc2ccc(-c3nc4ccccc4s3)cc2)cc1
→ 4.3, -1.4, 4.3, -1.2, 8.3%, -35.9%[inhibitor]
- CCOC(=O)C1=C(C)Nc2[nH]c(=O)[nH]c(=O)c2C1c1cccs1 (stereo not given)
→ 1.8, 5.2, -3.3, 5.8, 6.4%, 3.3%
- C/C(=N\Nc1nccnc1Cl)c1ccc([N+](=O)[O-])cc1
→ -7.8, -8.1, -6.3, -2.3, 2.9%, 37.2%
- CCCn1nc(C(=O)Nc2nc(-c3ccccn3)cs2)c2ccccc2c1=O
→ -76.6*, -86.4*, 8.4, 7.5, ?, 31.8%
- COc1ccc(S(=O)(=O)N2CCCCC2)cc1NC(=O)c1cc([N+](=O)[O-])ccc1N1CCOCC1
→ 0.4, -1.1, -8.4, 0.5, 4.8%, ?
- CN(CC(=O)Nc1cccc(F)c1)C(=O)c1cc(-c2ccccc2)nc2ccccc12
→ -3.4, 3.1, -15.7, -1.9, ?, 5.5%
- CC(=O)N1CC(C)Sc2ccc(S(=O)(=O)NCCc3cccc(C)c3)cc21 (stereo not given)
→ 1.3, 0.8, -3.5, 4.5, -12.3%, 6.6%
- COc1ccc(Cl)cc1N1C(=O)C2CCCN2C1c1ccc(F)c(F)c1 (stereo not given)
→ -4.9, 5.9, -4.5, 7.2, 5.0%, -43.5%[inhibitor]
- COc1ccc(CCN(C)C(=O)CN2C(=O)c3ccccc3S2(=O)=O)cc1OC
→ -0.1, -1.7, -11.3, -0.9, 11.2%, -23.3%
- COCCN1Cc2cccc(C(=O)Nc3ccc(-c4nc5ccccc5[nH]4)cc3)c2C1=O
→ 6.9, 19.2, 8.7, -3.8, -4.3%, -8.5%
- COc1ccccc1CCNC(=O)C(=O)NCC1OCCN1S(=O)(=O)c1ccc(Br)cc1 (stereo not given)
→ -0.9, 13.4, -2.8, -0.2, 14.8%, -29.9%
- CC(=O)NCCNc1nc2cc(-c3cnn(CCC(C)C)c3)sc2c(=O)n1C
→ -6.8, -5.8, -8.0, 4.8, ., .
- O=C(/C=C/c1ccc2ccccc2n1)N1CCN(c2ccccc2)CC1
→ -6.4, -0.6, -0.2, -5.8, -14.3%, -17.8%
- CC(=O)c1c(C)[nH]c(C(=O)Nc2cc(S(=O)(=O)N3CCCCC3)ccc2C)c1C
→ 7.6, 0.0, 1.9, 12.8, -31.1%, 28.0%
- O=C1CSC(=NC(=O)c2ccccc2)N1
→ -3.3, 11.7, -7.6, -0.9, -4.7%, -21.1%
- CC(=O)NC(CC(=O)O)C(=O)O (stereo not given)
→ -2.4, 7.0, -15.1, 1.9, 1.5%, .
- COc1ccc(NC(=O)N(Cc2cc3cc(OC)ccc3[nH]c2=O)CC2CCCO2)cc1 (stereo not given)
→ -2.3, 3.3, -17.5, -5.9, -12.8%, -28.3%
- CCN1C(=O)/C(=C2\SC(N3CCOCC3)=NC2=O)c2ccccc21
→ 13.2, 33.5, -2.8, -5.5, -18.2%, -25.1%
- O=C(CNC(=O)c1ccc(S(=O)(=O)N2CCCC2)cc1)N/N=C/c1ccco1
→ 10.4, ., 3.1, -3.3, -9.5%, 0.4%
- Nc1nnc(SCC(=O)Nc2cc(F)ccc2F)s1
→ 12.9, 3.5, -17.7, -0.3, 3.6%, -3.2%[15.4 µM]
- CCOc1cc(/C=C/C(=O)c2ccc(C)cc2)ccc1OCC(=O)N(C)C
→ -1.5, -14.0, -26.4, -3.6, -9.8%, 8.1%
- OC(c1cc(-c2ccc(Cl)cc2)nc2ccccc12)C1CCCCN1 (stereo not given)
→ 1.2, ., -0.7, -5.8, -2.7%, ?
- O=C(CC1CCCC1)Nc1cc(S(=O)(=O)N2CCOCC2)ccc1O
→ 8.4, 0.0, 3.4, 2.6, 6.6%, 19.8%
- N#CCC(=O)N1CCN(C=O)CC1
→ 1.0, -0.4, -8.4, 0.1, 4.1%, -15.8%
- Cc1ccc(NC(=O)CN(C)S(=O)(=O)c2cnc[nH]2)cc1C
→ -3.4, 1.7, -13.0, -0.1, 3.1%, 23.3%
- N#Cc1cnn2c(-c3cccc(C(F)(F)F)c3)ccnc12
→ 0.1, ., 5.1, -0.9, -3.6%, -8.9%
- Nc1ncc(Br)cc1S(=O)(=O)NCCC(=O)NCCc1ccc(Cl)cc1
→ -1.8, 4.6, -8.5, -1.1, -13.3%, 7.8%
- COc1ccc(-c2cnc3c(NC=O)cc(-c4cccc(NS(C)(=O)=O)c4)cn23)cc1OC
→ -15.6, -19.7, -9.2, -8.7, ., .
- COc1cc2c(cc1/C=C1/NC(=O)N(CC(=O)Nc3ccccc3)C1=O)OCO2
→ -0.4, -8.2, -6.4, -4.4, 9.3%, 3.2%[15.4 µM]
- CC(C)N(C(=O)COC(=O)c1ccccc1C(=O)c1ccc(Cl)c([N+](=O)[O-])c1)C(C)C
→ -13.4, -2.5, -5.6, 4.4, -14.3%, -15.6%[15.4 µM]
- COCc1ccc(C(=O)N2CCc3c([nH]c4ccccc34)C2c2ccccn2)s1 (stereo not given)
→ -14.4, 0.0, -11.9, -5.9, -7.7%, 13.6%[15.4 µM]
- C[C@H](NC(=O)OC(C)(C)C)c1nnc(SCC(N)=O)o1
→ 3.5, -0.5, -9.9, -2.3, 13.9%, ?
- CCOC(=O)C(C)Sc1nnc(-c2ccccc2O)n1-c1ccc(C)cc1 (stereo not given)
→ 2.3, -5.2, 1.8, 0.3, -26.1%, -7.3%
- O=C(CSc1ncn[nH]1)Nc1c(F)cc(F)cc1Br
→ -0.4, 3.8, -17.6, -5.7, -5.8%, 3.5%
- CCOCC(=O)Nc1ccc(S(=O)(=O)Nc2ncccn2)cc1
→ 3.1, 4.6, 23.5, -3.8, 0.0%, ?
- COc1ccc(C(=O)OCC(=O)c2c[nH]c3ccccc23)cc1OC
→ -2.8, -5.8, 0.6, 7.0, 16.7%, -2.8%
- O=[N+]([O-])c1ccc(-c2cc(-c3ccncc3)nc3ccc4ccccc4c23)cc1
→ -1.3, 10.0, -13.9, 0.4, 2.8%, -20.3%
- CCc1ccccc1NC(=O)/C(C#N)=C/c1ccc(Sc2ccccc2)o1
→ -10.9, ., -8.0, -0.5, -9.7%, 4.1%
- CSc1nc(SCC(=O)NCc2ccco2)c2c3c(sc2n1)COC(C)(C)C3
→ -13.3, 4.2, -8.5, 1.1, 18.1%, -0.8%
- CC1(NC(=O)Cc2ccc(Cl)c(Cl)c2)CCS(=O)(=O)C1 (stereo not given)
→ 10.4, 3.2, -0.9, 5.0, 4.6%, 5.3%
- O=C(CN1CCN(C(=O)c2ccccc2)CC1)Nc1cc(S(=O)(=O)N2CCCC2)ccc1Cl
→ -8.5, -0.4, -0.8, -4.0, ?, -15.2%
- O=Cc1c(Nc2ccccc2Cl)nc2ccccn2c1=O
→ -2.3, ., 17.7, 8.7, 1.2%, -86.0%[inhibitor]
- CCOC(=O)c1c(C)[nH]c(C(=O)C(C)Cl)c1C (stereo not given)
→ -4.9, -1.3, -8.8, -3.0, -6.1%, -0.3%[15.4 µM]
- O=C(Cn1cnc2c(cnn2-c2ccccc2Cl)c1=O)N1CCc2ccccc21
→ 2.0, -3.1, -8.6, 0.8, -0.4%, ?
- COc1ccc(-n2nc(C(=O)NCC(=O)NCc3ccccc3OC)c3ccccc3c2=O)c(OC)c1
→ -2.5, -17.0, 4.6, -13.4, -17.1%, 3.1%[15.4 µM]
- Cc1ccc(S(=O)(=O)N2CCC(C(=O)Nc3cc(C(F)(F)F)ccc3N3CCOCC3)CC2)cc1C
→ 3.9, 1.7, 9.1, 0.1, -3.3%, 33.2%[15.4 µM]
- O=C(O)c1cccc(Sc2ccc(Br)cc2C(=O)O)c1
→ 2.2, -11.4, -0.9, -2.6, 9.3%, -27.3%
- CCC(C(=O)OCC(=O)N(CCOC)c1c(N)n(Cc2ccccc2)c(=O)[nH]c1=O)c1ccccc1 (stereo not given)
→ -0.3, 8.6, -7.0, -4.2, 7.5%, -16.3%
- CCN(CC(=O)Nc1ccc(NC(C)=O)cc1)C(=O)c1cc(S(=O)(=O)N2CCCCCC2)ccc1OC
→ -4.4, -5.7, -0.5, -2.2, -5.2%, -0.9%[15.4 µM]
- O=S(=O)(Nc1ccc2c(c1)OCO2)c1ccc(Br)s1
→ -6.6, -9.5, 12.7, -1.4, 3.1%, 2.4%

Compound activity from PubChem BioAssay.
